Assay outcomes deposited in PubChem by National Center for Advancing Translational Sciences (NCATS).
Vaccinia Venus: inhibitors of vaccinia virus (Venus reporter). 330,000 compounds, 0.46% hits. Vaccinia virus Venus reporter expression, fluorescence. Potency, µM (doses to about 36.5 µM), without a hit: at the highest dose activity change, negative = inhibition, hits mostly inhibitors; active means well fitted inhibition curve with a large enough effect; inconclusive means small, poorly fitted or top-dose-only effect; inactive means no such curve, though single readings can be large or run the other way; tested in A549 cells; further: nearly all actives have a fitted effect of over 30% in size; inactives centre near -10
VACV mCherry inh: inhibitors of vaccinia virus infection (mCherry reporter signal). Vaccinia virus mCherry reporter infection, fluorescence; about a quarter of the inactives have no number. Potency, µM (series often up to 36.5 µM), inactives show at the top dose activity change, negative = inhibition, actives largely listed as inhibitors. 310,000 compounds, 0.63% hits. AID 720579; active = well fitted inhibition curve with a large enough effect; inconclusive = small, poorly fitted or top-dose-only effect; inactive = no such curve, though single readings can be large or run the other way; tested in A549 cells; further: nearly all actives have a fitted effect of over 35% in size; inactives centre near -10
Starred values were filed as active, the others as inactive; i = inactive; ? = inconclusive; nt = no result given; & = joins results of further samples; [ ] = another dose, or the depositor's remark. On the % scale 0 is the no-effect control and ±100 the full control effect; potency means the concentration at half of the fitted maximal effect.

Screens in order: Vaccinia Venus | VACV mCherry inh
O=S(=O)(NCCN1CCOCC1)c1cc(Cl)ccc1Cl
    -6.9% | i
Cc1n[nH]c(C)c1S(=O)(=O)N1CCN(c2ccccn2)CC1
    -14.7% | nt
COc1ccc(CC(=O)NCC2(c3ccc(OC)c(OC)c3)CCOCC2)cc1
    -1.7% | -13.3%
COc1cccc(C(=O)/C=C/c2ccc(OCC#N)c(OC)c2)c1
    ? | ?
CSc1ccc(Cn2c(C)c(C(=O)NCc3ccccc3C(F)(F)F)sc2=O)cc1
    -3.9% | i
CCCc1nc2sc3c(N4CCC(C)CC4)ncnc3c2c2c1CCCC2
    0.4% | 1.7%
O=C(Nc1ccc(N2CCOCC2)cc1)c1ccc(-c2ccccc2[N+](=O)[O-])o1
    -7.1% | -7.7%
O=C(NCCc1ccccc1Cl)c1ccc2c(c1)nc1n2CCCCC1
    -17.0% | -17.3%
COc1ccc(S(=O)(=O)N2CCC(C(=O)Nc3ccccc3)CC2)cc1OC
    -3.7% | 6.8%
O=S(=O)(c1ccc(Cl)cc1)N1CCN(S(=O)(=O)N2CCCCCC2)CC1
    -7.5% | -5.3%
Cc1ccc(-n2c(SCC(=O)Nc3cccc(S(=O)(=O)NC4=NCCCCC4)c3)nc3ccccc3c2=O)cc1C
    -14.5% | 10.9%
CCc1nc2ccc(C(=O)NCc3ccc(OC)cc3)cn2c1N(C)Cc1ccc(OC)cc1
    0.6% | -9.8%
CC1(C)O[C@@H]2[C@H](O1)[C@@H](COS(=O)(=O)O)O[C@H]2n1cc(Br)c(=O)[nH]c1=O
    -13.8% | -9.0%
CC(C)[C@H](NC(=O)c1ccccc1Cl)C(=O)OCC(=O)Nc1ccc(S(=O)(=O)N2CCOCC2)cc1
    0.0% | -1.9%
COc1ccc(OC)c(C2CC(=O)Oc3c2c(=O)n(C)c2ccccc32)c1 (stereo not given)
    -19.5% | -14.0%
CSc1ccc(CN(C)C(=O)c2cc(S(=O)(=O)NCc3ccccc3)ccc2C)cc1
    ? | -24.6%
COc1cccc(CNC(=O)CCCSc2ccccc2)c1
    -9.9% | i
O=C(Cc1ccccc1)Nc1ccc(C(=O)NCC2COc3ccccc3O2)cc1 (stereo not given)
    -11.0% | -1.5%
CC(=NNC(=O)c1ccc2nc[nH]c2c1)c1ccc(Br)cc1
    -1.6% | i
O=C(NC1CCCCC1)C(c1ccco1)N(C(=O)c1csnn1)c1cccc(Cl)c1 (stereo not given)
    -17.4% | -29.3%

Brought forward from above: two compounds, followed by the next part.
Screens in order: Vaccinia Venus | VACV mCherry inh
CC(=NNC(=O)c1ccc2nc[nH]c2c1)c1ccc(Br)cc1
    -1.6% | i
O=C(NC1CCCCC1)C(c1ccco1)N(C(=O)c1csnn1)c1cccc(Cl)c1 (stereo not given)
    -17.4% | -29.3%
CCN(CC)S(=O)(=O)c1ccc(N2CCCC2)c(NS(=O)(=O)c2ccc(F)cc2)c1
    -6.3% | -12.7%
NC(=O)c1cc(S(=O)(=O)NCC2CCC(C(=O)Nc3ccc(Cl)cc3)CC2)cs1 (stereo not given)
    5.2% | -1.4%
CN(C)S(=O)(=O)c1ccc(Cl)c(NC(=O)COc2ccccc2[N+](=O)[O-])c1
    -5.6% | i
Cc1cc(C)cc(C(O)c2ncc(-c3cccc(C(F)(F)F)c3)[nH]2)c1 (stereo not given)
    -18.5% | -12.7%
CC(=O)n1cc([C@H]2C=C(C(=O)N3CCN(Cc4ccccc4)CC3)O[C@@H](OCc3ccc(CO)cc3)C2)c2ccccc21
    ? | ?
O=C(O)c1cc(O)c2c(c1)[C@H]([C@H]1c3cc(C(=O)O)cc(O)c3C(=O)c3c(O[C@@H]4O[C@H](CO)[C@@H](O)[C@H](O)[C@H]4O)cccc31)c1cccc(O[C@@H]3O[C@H](CO)[C@@H](O)[C@H](O)[C@H]3O)c1C2=O
    2.8% | -9.7%
CC(=O)NCC(=O)NNC1CC(=O)N(c2cccc(Cl)c2)C1=O (stereo not given)
    -9.7% | -12.9%
CCOc1ccc2c(c1)sc(N)[n+]2Cc1cc(C)cc2cccnc12
    -25.4% | ?
COc1ccc(Cl)cc1NC(=O)N1CCN(c2ccccc2OC)CC1
    -26.3% | -15.1%
COc1ccc2c(c1)c1c(c(=O)n(CCc3ccccc3)c(=O)n1Cc1cccc(C)c1)n2C
    -6.3% | 0.4%
COc1ccc2c(c1)CCc1cnc(-n3ncc(C(=O)N4CCN(CCO)CC4)c3C3CC3)nc1-2
    -6.1% | -17.3%
O=C(NCC1CCCO1)c1ccccc1OCc1ccc(Cl)cc1 (stereo not given)
    -11.7% | -4.1%
CC(C)CN1CCN(Cc2cccn2-c2cccnc2)CC1CCO (stereo not given)
    -11.2% | -3.3%
COc1ccccc1C(=O)NCCN1CCCC1
    -4.0% | i
CC1CCN(C(=O)c2[nH]cnc2C(=O)N2CCN(c3ccccc3)CC2)CC1
    -18.2% | i
CC(C)c1ccc(-c2csc3ncnc(N4CCN(C)CC4)c23)cc1
    -22.6% | i
Cc1nnc(NN)n(N)c1=O
    -11.4% | -6.7%
Cc1cc(Cl)ccc1NC(=O)CN1C(=O)NC2(CCCc3ccccc32)C1=O (stereo not given)
    -13.2% | -23.4%
OCC1(Cc2ccccc2)CCCN(Cc2cnn(-c3ccccc3)c2)C1 (stereo not given)
    -15.9% | -22.1%
COc1cc2c(cc1OC)[C@@H]1C(=O)c3ccc4c(c3OC1CO2)CC(C(C)C)O4 (stereo not given in full)
    -27.6% | -31.2%
C/C(N)=C(/C#N)C(=O)CSc1nnc(Nc2ccccc2)s1
    -13.6% | -5.6%
C#CCOCCOCCOCCNc1nc(N2CCN(C(=O)C([C@@H](C)CC)n3cc(C(N)CC(C)C)nn3)CC2)nc(N2CCN(C(=O)[C@H](CCC(=O)O)n3cc(C(N)[C@H](C)CC)nn3)CC2)n1 (stereo not given in full)
    -2.5% | -8.6%
Cc1cccc(OCCCC(=O)NCC(=O)Nc2cccc(C)c2C)c1
    -5.8% | i
COc1ccc(NC(=O)CCNS(=O)(=O)c2ccc3c(c2)CC(C)N3C(C)=O)cc1 (stereo not given)
    -4.2% | i
N#CC1=C(N)C(C#N)(C#N)C(c2ccc[nH]2)C2CCCC=C12 (stereo not given)
    -1.3% | -2.4%
COc1ccc(CN2CCNC(=O)C2CC(=O)NC2CCCC2)c(C)c1C (stereo not given)
    -16.9%[7.34 µM] | -7.4%[7.34 µM]
COc1ccccc1CCC(=O)NNC(=O)c1cccs1
    -18.6% | -25.1%
Fc1ccc(-n2ncc3c(NC4CCCCCC4)ncnc32)cc1
    -16.2% | -11.2%
COc1ccc2[nH]cc(CCNC(C)=O)c2c1
    -15.9%&-13.7% | -2.1%&-5.6%
CC(C)N(C(=O)c1ccc(C(=O)Nc2ccc([N+](=O)[O-])cc2)cc1)C(C)C
    -13.1% | -2.9%
CCCOc1ccc(C2C(=O)N(C3CCCCCC3)CC(=O)N2CCC2=CCCCC2)cc1OC (stereo not given)
    -7.0% | -14.8%
COc1cc(/C=N/n2nnnc2Nc2ccccc2)cc(OC)c1OC
    -17.5% | -0.5%
COc1ccc(/C=C2\SC(=S)N(CC(=O)OCC(=O)Nc3ccc([N+](=O)[O-])cc3OC)C2=O)cc1
    -2.0% | 4.8%
S=C(NCCc1ccccc1)NN=C1CCCCCC1
    -5.9% | -18.9%
CCOc1ccccc1CNC(=O)Cn1c(-c2ccccc2)cc(C(C)=O)c1C
    9.9% | 3.7%
Cc1ccc(S(=O)(=O)N(C)C)cc1NC(=O)COC(=O)COc1ccccc1[N+](=O)[O-]
    -3.2% | -2.7%
Cc1ccc(NC(=O)c2cccc(NC(=O)/C=C/c3ccco3)c2)cc1C
    -24.8% | i
CN1CCN(C(=O)COc2ccc(S(=O)(=O)Nc3ccc(F)cc3)cc2)CC1
    -8.1% | -2.3%
CC1CCCCN1CCCNC(=O)Cn1ncc2c3ccccc3n(Cc3ccccc3)c2c1=O (stereo not given)
    -6.8% | -11.5%
Cc1cc(=O)oc2c(C)c(OCC(=O)NCCCN3CCOCC3)ccc12
    -4.8% | -9.8%
Cc1ccc(N(O)C(=O)OCCNC(=O)Nc2ccccc2)cc1
    -2.9% | i
COCc1c(C(=O)N2CCN(Cc3ccc(C#N)cc3)CC2)oc2ccccc12
    1.9% | -15.7%
COc1cc(C(C(=O)NC(C)(C)C)N(C(=O)CNC(=O)c2cccs2)c2ccccc2)cc(OC)c1OC (stereo not given)
    -9.1% | -15.4%
CCOC(=O)C1=CCN(S(=O)(=O)c2cccc(Cl)c2)C1c1cccc(C)c1 (stereo not given)
    -2.3% | 11.9%
Cc1cc2nc(C3CCCCC3)c(Cc3cccc(F)c3)n2c(C)c1Br
    -0.4% | -5.5%
COc1ccc2c(c1)C(NC(C)=O)CCc1cc(OC)c(OC)c(OC)c1-2 (stereo not given)
    ? | -10.4%
NC(=O)c1ccccc1N/C=C/C(=O)c1ccco1
    -17.0% | 3.2%[1.46 µM]
CCN(CC)CCN1C2=C(C(=O)CC(C)(C)C2)C(c2cccc(F)c2)C2=C1CC(C)(C)CC2=O
    -25.9% | -18.5%
NC(=O)C[C@@H]1NC(=O)CNC(=O)c2cc([N+](=O)[O-])cc(I)c2NCCC(C(N)=O)NC1=O (stereo not given in full)
    -5.8% | -18.5%
Cc1ccc2c(=O)cc(C(=O)Nc3ccc(S(=O)(=O)N4CCCCCC4)cc3)oc2c1
    -4.3% | 2.2%
COc1ccc(N(C)S(=O)(=O)c2ccc(C)cc2)c([N+](=O)[O-])c1
    -14.5% | i
COc1ccc(S(=O)(=O)NCCc2sc3nc(-c4ccc(C)cc4)nn3c2C)cc1F
    ? | ?
Cc1nnc(SCc2cc(=O)oc3cc(O)ccc23)n1Cc1ccccc1
    -10.1% | -13.4%
O=C(COc1ccccc1Cl)Nc1ccc2nc(SCC(=O)N3CCCC3)sc2c1
    ? | ?
Cc1ccc(NS(=O)(=O)c2cccc(C(=O)NC3CCN(Cc4ccccc4)CC3)c2)cc1
    ? | ?
COC(=O)c1c(NC(=O)c2nc3ccccc3s2)sc2c1CCN(C(C)=O)C2
    -25.8% | -5.3%
CCNC(=S)N(CCCO)Cc1cc2cc3c(cc2[nH]c1=O)OCCO3
    -0.8% | -7.1%
CC(NC(=O)c1cccnc1)c1nnc2n1CCN(Cc1ccc(-c3ccccc3Cl)o1)CC2 (stereo not given)
    -15.9% | i
CCCCCn1c(=O)[nH]c2cc(C(=O)Nc3ccc(F)cc3)ccc2c1=O
    6.0% | -6.2%
CCOC(=O)c1cc(-c2ccccc2)sc1NC(=O)CC
    -10.8% | -13.9%

The listing continues:
Screens in order: Vaccinia Venus | VACV mCherry inh
COc1ccc([C@H]2C[C@H](O)[C@@H](n3cc(-c4ccc(F)cc4)nn3)CN2C(=O)c2cccs2)cc1
    -14.9% | -8.1%
C[C@@H]1CN([C@H](C)CO)C(=O)c2cc(NC(=O)Nc3ccc4c(c3)OCO4)ccc2O[C@H]1CN(C)Cc1ccncc1
    -0.9% | i
CCOC(=O)NC(Cc1c[nH]c2ccccc12)C(=O)NCCc1ccc(S(N)(=O)=O)cc1 (stereo not given)
    -12.0% | ?
CCOc1cccc(N2C(=O)CC(NCc3ccc(S(N)(=O)=O)cc3)C2=O)c1 (stereo not given)
    -1.6% | nt
Cc1ccc(/C(N)=N/OC(=O)C(C)c2ccc([N+](=O)[O-])cc2)cc1 (stereo not given)
    0.7% | -9.7%
COc1ccc(C(=O)N/N=C/c2cc(Br)ccc2O)cc1OC
    -18.8% | 17.8µM*
Cn1cnc([N+](=O)[O-])c1Sc1ncn[nH]1
    -17.3% | i
O=C(CCN1CCCCO1)N1CCCC(Nc2cccc(F)c2)C1 (stereo not given)
    4.2% | i
Cc1cccc(C)c1OCc1nc2c3cnn(-c4ccccc4Br)c3ncn2n1
    -14.7% | -16.0%
Cc1ccc(C(=O)N2CCCC(Nc3ccc(C)c(C)c3)C2)c(=O)[nH]1 (stereo not given)
    -16.6% | -15.8%
COc1cc2cc(C(c3nnnn3C(C)(C)C)N3CCc4ccccc4C3)c(=O)[nH]c2cc1OC (stereo not given)
    -10.6% | -0.1%
COc1ccc(OC)c(NC(=O)Cn2cc(C=O)c3ccccc32)c1
    -17.2% | -16.9%
Cc1ccc(N2C(=O)C3C(C2=O)N2C(c4cccs4)C4C(=O)N(c5ccc(C)cc5)C(=O)C4N2C3c2cccs2)cc1 (stereo not given)
    -9.0% | -13.1%
O=C(CSc1ccc2nnc(-c3ccccn3)n2n1)N1CCN(c2ccccc2)CC1
    0.9% | i
Cc1ccc(S(=O)(=O)Oc2ccc(/C=C(/NC(=O)c3ccccc3)C(=O)NCCCC(=O)O)cc2)cc1
    -2.3% | 6.7%
CC1CC1C(=O)OCC(=O)Nc1ccc(N=Nc2ccccc2)cc1 (stereo not given)
    ? | -28.5%
COc1ccc([N+](=O)[O-])cc1NS(=O)(=O)c1ccc(C(=O)N2CCCC2)cc1
    -15.1% | -1.6%
CC(=O)Nn1cnc2c(c1=O)C1(CCCCC1)Cc1ccccc1-2
    -10.3% | -3.7%
